CDC25B-CDK2 inh: primary biochemical HTRF screen for blockers of M-phase inducer phosphatase 2 binding to CDK2/cyclin A; HTRF CDC25B-CDK2/CyclinA binding, anti-His/anti-Flag; active compounds read high; 94,000 compounds, 0.72% hits; P30305+P24941; z-score (test concentration not listed); AID 1259370, 2018;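 also: score is relative to mean and SD of negative controls; strong numbers were not always called active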
TAR Tat displ: TAR RNA-Tat peptide displacers, HIV-1, primary screen, biochemical, FRET, FAM/TAMRA-labeled Tat; 100,000 compounds, 0.6% hits; z-score (no concentration beside the values); AID 1259389, 2018; HIV-1 TAR RNA, Tat peptide displacement FRET; active compounds read high;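 also: score is relative to mean and SD of negative controls; some compounds called inactive have numbers as strong as hits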
An asterisk follows results filed as active; nt = not tested or not shown.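 The calls were made as follows: active = z-score from 3 up in half or more of its runs; inactive = the rest.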

Each structure is followed by: CDC25B-CDK2 inh, TAR Tat displ
Cc1cc(C)n(-c2nc3ccccc3n3c(N)nnc23)n1
→ -0.99, 1.66
Cc1csc2nc(CCNS(=O)(=O)c3ccc4c(c3)OCCO4)cn12
→ nt, -0.37
Cc1cccc(NC(=O)Cn2cc(S(=O)(=O)N3CCCC3)c(S(=O)(=O)N3CCCC3)c2)n1
→ nt, 0.47
CCOc1ccc(/C=C/c2nc(C#N)c(N(C)C)o2)cc1
→ 0.27, 1.28
CCN1C(=O)c2cc(C(=O)NC)nn2CC1(C)C(=O)NC1CCCC1 (configuration not stated)
→ nt, 1.13
O=C(NCCc1cccs1)c1cnc2sc(N3CCOCC3)nn2c1=O
→ nt, 0.85
Cn1ncc2c(NCCN3CCOCC3)ncnc21
→ nt, 1.95
N#CC1=C(N)OC2=C(COc3ccc(F)cc32)C1c1ccc(Cl)cc1 (configuration not stated)
→ -1.21, nt
CC1=C(C(=O)Nc2ccccc2)C(c2cccs2)C(C#N)=C(SCC(N)=O)N1 (configuration not stated)
→ -1.74, 1.05
CCN(CC)C(=O)C1Sc2nnc(-c3ccccc3)n2NC1c1ccccc1 (configuration not stated)
→ 0.55, 0.85
COCc1nn2cc(-c3ccc(Br)cc3)nc2s1
→ -2.48, 1.76
CC(C)CCNC(=O)COCc1cc(-c2ccco2)on1
→ nt, -5.91
CN(C1=NS(=O)(=O)c2ccccc21)c1ccc(OC(=O)c2ccco2)cc1
→ 0.63, nt
COc1ccc(OC)c(NC(=O)CS(=O)(=O)c2ccc3c(c2)S(=O)(=O)N=CN3)c1
→ nt, 1.79
COc1ccccc1C1Nc2ccccc2-c2cc(C)nn21 (configuration not stated)
→ -0.6, 0.71
Cc1ccc(C)c(NC(=O)CCCCCCCCCCC2CCCO2)c1 (configuration not stated)
→ -1.52, nt
COc1cc2c(cc1OC)C(c1ccc(Br)cc1)CC(=O)N2 (configuration not stated)
→ -0.76, 1.26
O=C(Cn1c(=O)oc2cc(S(=O)(=O)N3CCCC3)ccc21)Nc1cccnc1
→ -3.17, nt
Cc1c(C(=O)N2CCOCC2)oc2c1-c1nn(CC(=O)NCc3ccc4c(c3)OCO4)cc1CC2
→ nt, 3.29
O=C(CN1Cc2ccccc2C1=O)N1CCCCC1
→ nt, -0.22
CCC1(C)Cc2c(sc3nnn(CC(=O)c4ccc(Br)cc4)c(=O)c23)CO1 (configuration not stated)
→ -2.85, -0.58
CCCCc1nn2c(=O)cc(COC(=O)c3cccc(Cl)c3)nc2s1
→ nt, -0.44
Cc1ccc(NS(=O)(=O)c2cc(-c3onc(C)c3C)ccc2C)nc1
→ nt, 1.2
O=C(Nc1nc(-c2ccncc2)cs1)c1ccc([N+](=O)[O-])s1
→ nt, 1.47
CCCCC12CN3CC(C)(CN(C1)C3c1cc(Br)ccc1O)C2=O (configuration not stated)
→ 0.53, -0.13
C=C1C[C@@]23CC[C@H]4[C@@](C)(CCC[C@@]4(C)C(=O)O)[C@@H]2CC[C@]1(O)C3
→ -0.34, nt
CCCCOc1ccc(NC2=NC3(CCCCC3)N=C(N)N2)cc1
→ 2.09, nt
Cn1cc(S(=O)(=O)N2CCCC2)cc1C(=O)NC1CCCC1
→ nt, 1.66
O=C(NC1CCCC1)c1c(O)nc2ccccn2c1=O
→ -2.22, 2.33
COC(=O)c1cnc(-n2cc(C(=O)OC)c3ccccc3c2=O)c2ccccc12
→ 0.06, 0.67
O=S1(=O)N=C(N2CCN(CCO)CC2)c2ccccc21
→ -1.22, 2.84
COc1ccc(N2CCN(c3ncnc4c3nc3n4CCCCC3)CC2)cc1
→ nt, -0.3
CSc1nc(NCc2ccco2)c(C#N)c(-c2ccccc2)n1
→ -1.06, 0.23
Cc1ccc(C)c(N2CCN(c3c(-c4ccc(Cl)cc4)c(=O)c3=O)CC2)c1
→ nt, -0.19
Cc1cc(C)cc(NC(=O)c2cnc3sc4c(n3c2=O)CCCC4)c1
→ nt, 0.95
O=C1COc2cc(S(=O)(=O)NCc3ccco3)c(Cl)cc2N1
→ nt, -0.45
COc1ccc(C2Nc3ccccc3NC3=C2C(=O)CC(c2cccs2)C3)cc1Br (configuration not stated)
→ -2.38, 0.21
CCCCCC1CC(CC(=O)O)C(=O)O1 (configuration not stated)
→ -0.17, 0.59
Cc1cc(C)cc(N2C(=O)CC(n3ccnc3)C2=O)c1 (configuration not stated)
→ -1.19, -0.41
CCCSc1nnc2c(n1)OC(c1ccc(-c3ccc(C(=O)OCC)cc3)o1)Nc1ccccc1-2 (configuration not stated)
→ -1.12, nt
Cc1cc(=O)nc2c3ccccc3n(CC(=O)N3CCCC3)n12
→ -1.17, nt
COC(=O)c1ccc(C(=O)OCc2nc3cc4ccccc4cc3[nH]2)cc1
→ -1.65, 1.69
CC(=O)N1CCc2cc(S(=O)(=O)NC(C(=O)Nc3cc(C)cc(C)c3)C(C)C)ccc21 (configuration not stated)
→ -0.66, nt
COc1cc(NC(=O)Cn2cnc3c2c(=O)n(C)c(=O)n3C)c(OC)cc1Cl
→ -2.27, -0.25
COc1ccc(/C(=C\c2ccc(Cl)cc2)C(=O)O)cc1OC
→ -0.42, nt
COC(=O)c1sc(=S)n(-c2cc(OC)ccc2OC)c1N
→ nt, 0.76
CCOC(=O)c1c(C)oc2ncnc(NCCCN3CCC(C)CC3)c12
→ nt, 0.73
CCC1CN(C(=O)N2CCC(C(=O)N3CCN(c4ncccn4)CC3)CC2)c2ccccc2O1 (configuration not stated)
→ nt, 2.83
Cc1ccc(S(=O)(=O)N(CCS(=O)(=O)N2CCNCC2)C2CCCCC2)cc1
→ nt, 2
CC(C)(C)OC(=O)N1CCN(C(=O)c2ccc(Oc3cccnc3)o2)CC1
→ -1.14, nt
Cc1ccccc1Nc1c(-c2ccc(F)cc2)nc2cnccn12
→ 0.38, nt
CCC(=O)Nc1nnc(S(=O)(=O)N2CCc3ccccc32)s1
→ -0.35, 0.26
Cc1[nH]c2c(ccc3ccccc32)c(=O)c1CN1CCCCC1
→ -0.35, nt
Cc1cc(NCCN(C)C)n2nc(C(F)(F)F)c(-c3ccc(F)cc3)c2n1
→ -0.43, 0.74
O=C(c1ccc2c(c1)CCC2)C1CCC1
→ -0.27, nt
CCCCc1nnc2sc(NC(=O)C(CC)CC)nn12
→ -1.53, 0.92
CC1CCCCC1Nc1c(-c2ccccc2)c(=O)c1=O (configuration not stated)
→ nt, 1.79
Cc1cccc(NC(=O)c2cc3c(s2)-c2ccccc2OC3)n1
→ -0.7, 0.27
Cc1ccc(CN2C(=O)C(O)(c3c[nH]c4ccccc34)c3cc(Br)ccc32)cc1 (configuration not stated)
→ 1.37, -1.74
COc1ccc2oc(=O)c(C(=O)C[n+]3ccccc3)cc2c1
→ -0.94, nt

By substructure: the compounds so far with an aryl thioether with sulfur outside any ring
Each structure is followed by: CDC25B-CDK2 inh, TAR Tat displ
CSc1nc(NCc2ccco2)c(C#N)c(-c2ccccc2)n1
→ -1.06, 0.23
CCCSc1nnc2c(n1)OC(c1ccc(-c3ccc(C(=O)OCC)cc3)o1)Nc1ccccc1-2 (configuration not stated)
→ -1.12, nt

Next section:
Each structure is followed by: CDC25B-CDK2 inh, TAR Tat displ
Nc1cccc(N2CCn3c(nc4cc(Cl)ccc43)C2)c1
→ -0.91, -5.08
C=CCOc1ccc(C(=O)Nc2nonc2-c2ccc(OC)c(OC)c2)cc1
→ -0.24, 1.31
O=C(Cn1ncn2nc(-c3cccs3)cc2c1=O)NCCC1=CCCCC1
→ -0.23, 1.67
O=C(Nc1ccc2c(c1)OCCO2)Nc1nnc(C2CC2)s1
→ 0.77, nt
Cn1nnc2c(NCc3ccccc3)ncnc21
→ nt, 2.36
CCOC(=O)c1cn[nH]c1S(=O)(=O)Nc1ccc(Cl)cc1
→ nt, -0.03
C=CCN1C(=O)C2(/C(=C(/O)c3ccc(F)cc3)C(=O)C(=O)N2CCCOC)c2ccccc21 (configuration not stated)
→ 1.1, -0.26
CCOc1ccc(-c2csc(-c3cc4c([nH]c3=O)CC(C)(C)CC4=O)n2)cc1
→ -0.53, -1.05
CCOC(=O)c1c(-c2ccccc2)oc2ccc(OCC(=O)OC)cc12
→ -0.71, nt
CCCc1c(C)c(C#N)c2nc3ccccc3n2c1NCCCN1CCOCC1
→ -1.34, 0.37
O=C(Nc1ccc(Cl)cc1Cl)c1cnccn1
→ -1.66, nt
CC(=O)Nc1ccc(/C=N/NC(=O)CSCc2c(Cl)cccc2Cl)cc1
→ -0.32, nt
COc1ccc(-c2cc(C(=O)O)c3c(-c4cccc(OC)c4)[nH]nc3n2)cc1
→ -0.09, 2.55
COc1ccc(-c2nn3c(COc4ccc(Cl)cc4)nnc3s2)cc1OC
→ 0.36, 1.12
CC1(C)CC[C@]2(C(=O)O)CC[C@]3(C)C(=CCC4[C@@]5(C)CC[C@@H](O)C(C)(C)C5CC[C@]43C)C2C1 (some centres not stated)
→ nt, 0.61
Cc1cc(S(=O)(=O)N2CCCN(S(=O)(=O)c3ccc(Cl)c(C)c3)CC2)ccc1Cl
→ -1.84, nt
CCOC(=O)c1c(NC(=O)c2ccco2)sc2c1CCCC2
→ -1.27, nt
Cc1ccc(-n2ncc3c(NCCCN(C)C)ncnc32)cc1
→ nt, -0.87
CCN(CC)CCN(C(C)=O)c1nc2c(C)c(C)ccc2s1
→ nt, 1.15
CCOC(=O)c1c(C)[nH]c(NC(=O)N2CCN(C(=O)c3ccco3)CC2)c1C
→ -1.55, -1.14

Record cards, from the list above. Values in the order: CDC25B-CDK2 inh | TAR Tat displ
O=C(Nc1ccc(Cl)cc1Cl)c1cnccn1 in the list: -1.66 | nt
CCCc1c(C)c(C#N)c2nc3ccccc3n2c1NCCCN1CCOCC1 in the list: -1.34 | 0.37
C=CCOc1ccc(C(=O)Nc2nonc2-c2ccc(OC)c(OC)c2)cc1 in the list: -0.24 | 1.31
CCOC(=O)c1c(-c2ccccc2)oc2ccc(OCC(=O)OC)cc12 in the list: -0.71 | nt
CCOC(=O)c1cn[nH]c1S(=O)(=O)Nc1ccc(Cl)cc1 in the list: nt | -0.03

New compounds follow
Each structure is followed by: CDC25B-CDK2 inh, TAR Tat displ
CCOC(=O)c1cn(CC)c2nc(C)ccc2c1=O
→ nt, -0.38
O=C(Nc1c(C(c2ccccc2F)N2CCOCC2)oc2ccccc12)c1ccco1 (configuration not stated)
→ -0.15, 0.25
COc1ccc(N2CCN(C(CNS(=O)(=O)c3cccs3)c3ccco3)CC2)cc1 (configuration not stated)
→ nt, 0.7
O=C1c2[nH]nc(-c3ccccc3O)c2C(c2cccc(O)c2)N1Cc1ccncc1 (configuration not stated)
→ 1.18, 1.29
CC(C)(C)c1cc(-c2nnc(C3CC3)o2)n(Cc2ccc(F)cc2)n1
→ -0.76, nt
O=C(Cn1cnc2c(nnn2-c2cccc(Cl)c2)c1=O)Nc1ccc2c(c1)OCCO2
→ -0.76, 0.45
Cc1csc(NC(=O)CSc2ncnc3ccccc23)n1
→ -1.31, -0.84
O=C(O)Cn1cc(-c2nnc(CN3CCCCC3)o2)c2ccccc21
→ -1.57, 0.03
O=C1C=C(NCc2ccncc2)CC(c2ccccc2)C1 (configuration not stated)
→ 0.74, 0.06
COc1cc([N+](=O)[O-])c(OC)cc1SCc1n[nH]c(=S)n1-c1ccc(C)cc1
→ -0.1, nt
O=c1cc(CSc2ncn[nH]2)nc2sc(C3CCCCC3)nn12
→ nt, -1.05
Cn1nnnc1SCC(=O)Nc1ccc2c(c1)OCO2
→ -1.4, 2
CN(C)CCCN(C(=O)C1CCCCC1)c1nc2c(F)cc(F)cc2s1
→ nt, 1.1
O=C(NCc1cccn1Cc1ccc(F)cc1)Nc1ccc(Br)cc1
→ nt, 1.3
COc1ccc(N2C(=O)c3cccnc3C2Nc2ccc(OC)c(OC)c2)cc1 (configuration not stated)
→ nt, -2.17
COc1ccc(N2C(=O)C3N=NN(CC(=O)Nc4ccc(F)cc4F)C3C2=O)cc1Cl (configuration not stated)
→ nt, 0.05
COCc1cc(C)nc2sc3c(=O)n(-c4ccccc4F)nnc3c12
→ -0.69, 2.2
CCCC(=O)Nc1nn2c(-c3ccco3)nnc2s1
→ -1.02, 0.46
O=C(c1cnn2ccccc12)N1CCN(C2CCCCC2)CC1
→ -0.03, 0.36
Cc1ccc(S(=O)(=O)NC2CCCCC2)cc1-c1nnc2c3ccccc3c(C)nn12
→ -1.32, 1.16
Cc1ccc(NC(=O)CSc2nnc(C)n3c2cc2sccc23)c(C)c1
→ nt, -0.26
COC(=O)c1cc(=O)nc2n1C1O[C@H](CO)C(O)[C@H]1O2 (some centres not stated)
→ 0.91, nt
COc1ccc(-c2nnc(Nc3nc4cc5c(cc4s3)OCO5)o2)c(OC)c1
→ -4.1, nt
O=C1CCCc2oc3c(cc(NS(=O)(=O)c4ccccc4)c4ccccc43)c21
→ 0.05, nt
CCOc1ccc(CCNc2c(-c3ccc4c(c3)OCC(=O)N4)c(=O)c2=O)cc1OCC
→ nt, -0.12
CCOC(=O)c1c(NC(=O)c2ccco2)sc(C(=O)N2CCCC2)c1C
→ nt, 2.36
CCCN1C(=O)C(O)(CC(=O)c2ccc(C)cc2C)c2cc(Br)ccc21 (configuration not stated)
→ -1.49, nt
Cc1ccc(/C(O)=C2/C(=O)C(=O)N(CC(C)O)C2c2cccc(F)c2)cc1 (configuration not stated)
→ -1.23, 0.76
N#Cc1c(NC(=O)c2ccco2)sc2c1CCCCC2
→ -1.22, 0.87
CCCC1c2ccc(C)n2CCN1C(=O)Nc1cc(Cl)ccc1OC (configuration not stated)
→ -1.77, -7.78
CCOC(=O)CSc1nc2c(sc3ccccc32)c(=O)n1CC1CCCO1 (configuration not stated)
→ -0.53, nt
O=C1CC(c2ccc(Cl)cc2)Cc2nc(N3CCc4ccccc43)ncc21 (configuration not stated)
→ -0.09, -0.19

High-throughput results deposited in PubChem by Center for Chemical Genomics, University of Michigan.
